TAR Tat displ = HIV-1 TAR-Tat binding disruption; HIV-1 TAR RNA, Tat peptide displacement FRET; stronger effect = higher value; actives 0.6% (n = 100,000); z-score (test concentration not listed); AID 1259389;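 note: score is relative to mean and SD of negative controls; some compounds called inactive have numbers as strong as hits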
CDC25B CDK2 inh = human CDC25B-CDK2/CyclinA binding inhibition; z-score (test concentration not listed); actives 0.72% (n = 94,000); HTRF CDC25B-CDK2/CyclinA binding, anti-His/anti-Flag; stronger effect = higher value; AID 1259370;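 note: score is relative to mean and SD of negative controls; strong numbers were not always called active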
* = called active by the depositor; . = no result given.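 Rule for the calls: active = z-score from 3 up in half or more of its runs; inactive = the rest.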 Compounds were not picked by outcome (roughly 0.87% active in at least one column).

structure,TAR Tat displ,CDC25B CDK2 inh
Cc1coc(C)c1C(=O)CC1(O)C(=O)N(CCc2ccccc2)c2ccc(Br)cc21 (configuration not stated),-0.09,0.65
O=S(=O)(Nc1ccc(Cl)c(N2CCCS2(=O)=O)c1)c1ccccc1,0.36,.
Cc1ccc(S(=O)(=O)NCc2ccc3c(c2)OCO3)cc1C,0.97,-0.59
CCOc1ccc(-c2nc3cccnc3n2CCOC)cc1,0.51,-0.75
c1cc2c(cc1COCc1ccc3c(c1)CCO3)CCO2,.,-0.78
Cn1c(=O)c2c(SCC(=O)N3CCOCC3)nc(-c3cccs3)nc2n(C)c1=O,.,-1.72
O=C(NCCC1=CCCCC1)C1CCC(CNc2c(N3CCCCC3)c(=O)c2=O)CC1 (configuration not stated),2.46,-3.91
CCN1CCc2c(sc(-n3cccc3)c2CNC(=O)Nc2ccc(Br)c(C)c2)C1,-6.13,.
O=C(c1cc(-c2ccc3c(c2)OCCO3)on1)N1CCN(C(c2ccccc2)c2ccccc2)CC1,2.08,-2.06
Cc1cc2n(n1)CCCN2C(=O)CCC(=O)NC1CCCCC1,1.06,.
Cc1ccc(S(=O)(=O)Nc2cccc(-c3cn4cccc(C)c4n3)c2)c(C)c1,.,-0.88
O=C(O)C1C2C=CC3(CN(Cc4cccnc4)C(=O)C13)O2 (configuration not stated),0.11,-0.52

Next section:
structure,TAR Tat displ,CDC25B CDK2 inh
Cc1ccc(NC(=O)N2CCn3cccc3C2C(C)C)c(C)c1 (configuration not stated),0.44,.
CCOc1ccc(NC(=O)c2cc(C)n(C)n2)cc1,.,0.49
Cc1ccc(-c2nc3scc(CCNS(=O)(=O)c4cc(F)ccc4F)n3n2)cc1,2.01,.
CCC1=C(C(=O)OC)C(c2ccc(Br)cc2)n2ncnc2N1 (configuration not stated),-0.17,-0.03
Cn1ncc2c(NCc3ccccc3Cl)nc(NCCN3CCOCC3)nc21,1.6,.
Cn1ncc2c(N3CCC(C(N)=O)CC3)ncnc21,0.85,.
COc1cccc(CN=C2NS(=O)(=O)C(c3ccc(C(C)C)cc3)=C2C)c1OC,-0.33,-1.64
Cc1cc2oc(C(=O)N(Cc3ccccc3F)C3CCS(=O)(=O)C3)c(C)c2cc1C (configuration not stated),1.59,0.68
CSc1nc(N)n(-c2ncccc2C(F)(F)F)n1,.,-1.02
Fc1cc2c(c(CSc3nc4ccccc4[nH]3)c1)OCOC2,.,-0.57
Cc1ccc(CNS(=O)(=O)c2cc(-c3csc(C)n3)ccc2C)o1,0.75,.
O=c1c2c(-c3ccccc3)csc2ncn1CC1CCCO1 (configuration not stated),0.32,-0.94

Continued:
structure,TAR Tat displ,CDC25B CDK2 inh
O=C(CSC1=Nc2ccccc2C2=NC(c3ccccc3)C(=O)N12)NCc1ccc(Cl)cc1 (configuration not stated),-1.38,.
CCCc1cc(=O)oc2cc(C)cc(OCC(=O)C(C)(C)C)c12,.,0.27
COc1ccccc1N1CCN(CCCCN2C(=O)c3ccccc3C2=O)CC1,.,2.18
COc1cc(OC)cc(C(=O)O/N=C2/C(=O)N(C)c3ccccc32)c1,.,-3.41
O=C(c1cccnc1)N1N=C2CCCCC2C1(O)C(F)(F)F (configuration not stated),.,0.02
Cc1nc2ncnn2c(NCc2ccc3c(c2)OCO3)c1C,1.23,.
CC1=CC(C)(C)Nc2ccc(OC(=O)c3ccco3)cc21,-3.01,1.51
COc1cc(OC)c(NC(=O)C(C)n2c3ccccc3c3nc(=O)cc(C)n32)cc1Cl (configuration not stated),2.12,0.3
N#CC1=C2SCN(Cc3ccccc3)CN2C(=O)CC1c1cccc(Br)c1 (configuration not stated),-0.65,2.93
COc1ccc(O)c(C2=NN3C(C2)c2cc(Cl)ccc2OC3c2ccncc2)c1 (configuration not stated),-2.16,-0.12
CS(=O)(=O)Nc1ccc2[nH]c(=O)[nH]c2c1,1.67,-0.57
Cc1cc(C(=O)N(CCC#N)Cc2ccccc2)no1,.,-1.21

Additional compounds.
structure,TAR Tat displ,CDC25B CDK2 inh
CC(C)(C)c1nnc(NC(=O)Cn2c(=O)sc3ccccc32)s1,-0.68,-1.54
CC1(C)Cc2c(sc3ncn4nc(C5COc6ccccc6O5)nc4c23)CO1 (configuration not stated),.,-0.73
O=C(C1CCCN(c2nc3cccnc3s2)C1)N1CCN(c2cccc(Cl)c2)CC1 (configuration not stated),3.95,.
Cc1cc2nc(CSc3nc4ccc(NC(=O)C(C)C)cc4s3)cc(=O)n2o1,0.22,.
CCCNc1nc(N2CCN(CC)CC2)nc2c1cnn2C,1.22,.
Cc1nnc2c3ccccc3nc(N3CCC(Cc4ccccc4)CC3)n12,-1.02,.
Cc1ccsc1CCNC(=O)CCS(=O)(=O)c1ccc2c(c1)oc(=O)n2C,1.29,.
Cn1c(=O)n(CC(=O)O)c(=O)c2c1nc1n2CCN1c1ccc(Cl)cc1,0.36,-0.31
O=C1C(=Cc2cccc([N+](=O)[O-])c2)N=C2SCCCN12,.,1.1
Cc1ccc2nc(C3=C(O)CN(c4ccc(C(N)=O)cc4)C3=N)[nH]c2c1,0.27,-3.63
O=C(Nc1ccccc1F)N1CCN2CCCCC2C1 (configuration not stated),-0.54,.
COC(=O)c1ccc(-c2ccco2)n1CC(=O)NCc1cccs1,-10.1,.

As entered above:
Entry for `COC(=O)c1ccc(-c2ccco2)n1CC(=O)NCc1cccs1` in TAR Tat displ: -10.1
Entry for `Cc1ccsc1CCNC(=O)CCS(=O)(=O)c1ccc2c(c1)oc(=O)n2C` in TAR Tat displ: 1.29
Entry for `CCCNc1nc(N2CCN(CC)CC2)nc2c1cnn2C` in TAR Tat displ: 1.22
Entry for `Cc1ccc2nc(C3=C(O)CN(c4ccc(C(N)=O)cc4)C3=N)[nH]c2c1` in TAR Tat displ: 0.27
Entry for `O=C(Nc1ccccc1F)N1CCN2CCCCC2C1` (configuration not stated) in TAR Tat displ: -0.54
Entry for `CC1(C)Cc2c(sc3ncn4nc(C5COc6ccccc6O5)nc4c23)CO1` (configuration not stated) in CDC25B CDK2 inh: -0.73

Later entries
structure,TAR Tat displ,CDC25B CDK2 inh
Cn1cc(CN2CCC(C(=O)N3CCCCC3)CC2)c2cc(Cl)ccc21,1.33,.
CCc1ccc2[nH]c(C(=O)Nc3ccc(C(F)(F)F)c(C#N)c3)cc2c1,.,-0.74
CCOC(=O)c1nnn(-c2nonc2N)c1-c1cccc(OCC)c1,-0.29,-1.02
COC(=O)c1ccc(Cn2nnc3sc4c(c3c2=O)CCCC4)cc1,-0.25,1.35
COc1ccc(Cl)cc1NC(=O)N1CCC2(CC1)Nc1cc(F)ccc1-n1cccc12,0.82,.
CNC(=O)c1cnc2sc(N3CCC(C)CC3)nn2c1=O,-0.53,.
CCOC(=O)c1cc(=O)n(CC)c2c1c(=O)n(CC)c(=O)n2C,0.81,-2.53
CC1Cc2ccccc2N1C(=O)CN1C(=O)CSc2ccc(S(=O)(=O)N3CCOCC3)cc21 (configuration not stated),1.14,.
COCCCn1c(CCC(=O)O)ccc1-c1ccc(Cl)cc1,-2.72,-1.94
COCCCNC(=O)C1c2ccccc2C(=O)N1Cc1cccs1 (configuration not stated),2.62,.
Cc1ccc2oc3c(c(=O)c2c1)C(c1ccccn1)N(CCCN1CCOCC1)C3=O (configuration not stated),1.15,.
C=CCSc1nc2c(c(=O)[nH]1)C(c1cccc(F)c1)C(C(=O)OC)=C(C)N2 (configuration not stated),0.43,-0.41

The listing continues.
structure,TAR Tat displ,CDC25B CDK2 inh
O=C1c2oc3ccc(Br)cc3c(=O)c2C(c2cccc(O)c2)N1Cc1ccc(F)cc1 (configuration not stated),2.8,-0.91
CNC(=O)COc1cc(CSc2nnnn2C)ncc1OC,1.2,.
Cc1noc2ncn(CC(=O)c3ccccc3)c(=O)c12,1.29,.
O=C(CCCC(=O)c1ccccc1)c1ccccc1,.,-1.59
Cc1[nH]c(=O)[nH]c(=O)c1C1N2CC3(C(C)C)CN1CC(C(C)C)(C2)C3=O (configuration not stated),1.28,-0.42
CCOC(=O)c1ccc2c(c1)C1C=CCC1C(c1ccc(F)cc1)N2 (configuration not stated),-3.7,-0.41
O=C(O)C1c2ccccc2Oc2ccccc21,.,-1.08
CCCC12CN3CC(CCC)(CN(C1)C3c1ccc(O)cc1O)C2=O (configuration not stated),0.76,1.28
COC(=S)Nc1ccccc1,.,3.46
Cc1ccc(S(=O)(=O)Nc2nc3n(n2)C(c2ccccc2)C=C(c2ccccc2)N3)cc1 (configuration not stated),-1.47,2.98
CSc1ncc(Cl)c(C(=O)N(Cc2ccccc2)Cc2ccco2)n1,1.7,0.12
N=C1C(C(F)(F)F)(C(F)(F)F)OC(F)(F)C1(C(F)(F)F)C(F)(F)F,.,-1.16

(more compounds)
structure,TAR Tat displ,CDC25B CDK2 inh
O=C1Cc2cc(NS(=O)(=O)C3CCCCC3)ccc2N1,0.29,.
CC1CCCN(c2ccc([N+](=O)[O-])cc2)C1 (configuration not stated),.,-2.24
CSc1nnc(SCCS(=O)(=O)c2ccc(Cl)cc2)s1,.,-0.37
O=C(NCC1CCCO1)c1ccc2c(=O)n(Cc3ccco3)c(SCC(=O)N3CCCC3)nc2c1 (configuration not stated),0.86,.
CC(C)(C)N1CC(C(=O)O)CC1=O (configuration not stated),0.93,-0.07
CSc1nc2c(c(=O)[nH]1)C(c1ccc(F)cc1F)CC(=O)N2 (configuration not stated),1.59,-1.72
CN(Cc1ccco1)C(=O)C1=Cc2sc3c(c2CS1)CCCC3,2.3,.
CC[C@@H](C)[C@@H](O)[C@H](C)C(=O)[C@H](C)/C=C(\C)C[C@H](C)[C@@H]1OC(=O)[C@H]1CC,0.43,.
Cc1ccccc1C(=O)Oc1ccc(-c2csnn2)cc1,.,-0.23
CC1(C(=O)O)CCC(C(=O)Nc2ccc(S(N)(=O)=O)cc2)C1(C)C (configuration not stated),1.28,-0.38
C#Cc1cccc(NC(=O)c2ccc(Cl)cc2Cl)c1,.,-1.21
CCCCNC(=O)C1CCCN(c2nn3c(=O)c4c(nc3s2)CCCC4)C1 (configuration not stated),1.08,.

Other results:
structure,TAR Tat displ,CDC25B CDK2 inh
Cc1nn2c(=O)cc(COC(=O)c3ccc(C(C)(C)C)cc3)nc2s1,-1.24,.
CN(CC(=O)NCc1cccs1)S(=O)(=O)c1cccc2cccnc12,1.54,-0.99
COc1ccc(CCNc2oc(-c3ccc(C)cc3)nc2C#N)cc1OC,1.79,-1.9
COc1cc2c3c(c1OC)C1(C=CC(=O)C=C1)CC3N(C)CC2 (configuration not stated),-2.96,8.27*
Cc1nc2nc(NC(=O)c3ccc(C(C)(C)C)cc3)[nH]n2c(=O)c1Cl,1.23,-1.58
Cc1cccc(C2CC(=O)c3cnc4c(-c5ccccc5)c(C)nn4c3C2)c1 (configuration not stated),-0.34,-0.83
Cc1ccc(CNc2nc3nc4c(c(=O)n3[nH]2)CCC4)cc1,0.86,-1.14
O=C(NCc1ccco1)C1CCN(c2ccc(N3CCOCC3)nn2)CC1,.,-1.33
COC(=O)Cc1c(C)nc2nc(NCc3cc(F)cc(F)c3)[nH]n2c1=O,-0.11,1.44
Cc1ccc(Nc2nc3ccccc3n3cnnc23)cc1,1.13,-0.93
Cc1ccccc1-c1noc(C2CCCN(S(=O)(=O)c3ccc(Cl)cc3)C2)n1 (configuration not stated),2.43,.
O=C(NCCNCCO)c1c(O)c2c([nH]c1=O)CCCC2,1.63,.

Single records, as listed above. Values in the order: TAR Tat displ, CDC25B CDK2 inh
O=S(=O)(Nc1ccc(Cl)c(N2CCCS2(=O)=O)c1)c1ccccc1 in the list: 0.36, .
Cc1cc2oc(C(=O)N(Cc3ccccc3F)C3CCS(=O)(=O)C3)c(C)c2cc1C (configuration not stated) in the list: 1.59, 0.68
O=C(Nc1ccccc1F)N1CCN2CCCCC2C1 (configuration not stated) in the list: -0.54, .
COc1cc(OC)cc(C(=O)O/N=C2/C(=O)N(C)c3ccccc32)c1 in the list: ., -3.41

(next part)
structure,TAR Tat displ,CDC25B CDK2 inh
C=CCOc1cccc(-c2nc3c(c(=O)[nH]2)Cc2cccc(OCC)c2O3)c1,0.95,-0.67
CC(NC(=O)c1ccc(NC2=NC3CS(=O)(=O)CC3S2)cc1)c1ccc2c(c1)OCCO2 (configuration not stated),2.73,-1.13
COc1ccc(-c2cc(=O)c3ccc(O)cc3o2)cc1,2.91,.
c1ccc(-c2nc3cc4nc(-c5ccccc5)[nH]c4cc3[nH]2)cc1,.,-1.5
O=S(=O)(NCc1cccn1Cc1cccc(F)c1)c1ccc2c(c1)CCCC2,-0.25,.
CC(C)Cc1nnc2sc(NC(=O)C(C)C)nn12,1.57,-0.66
Cc1ccc(C)c(Cn2cccc2CNS(=O)(=O)c2ccc3c(c2)oc(=O)n3C)c1,2.19,.
Cc1ccc(-c2nn3cnnc3s2)cc1C,0.52,-0.82
Cc1cc(C)c2c(=O)cc(C(=O)Nc3sc4c(c3C(=O)NCc3ccco3)CCC4)oc2c1,2.01,4.01*
CC(=O)N1CCc2cc(Br)cc(S(=O)(=O)n3cc4c(=O)n(C)c(=O)n(C)c4n3)c21,1.68,.
Cc1ccsc1-c1nc(C(N)=O)c2[nH]c(=O)n(-c3ccccc3)c2n1,.,-2.19
CCN(CC)CCNC(=O)COc1ccc(OC)cc1,0.15,.

Next records.
structure,TAR Tat displ,CDC25B CDK2 inh
COc1cn(CC(=O)NC2CCCC2)c(CSc2nccc(C)n2)cc1=O,1.69,.
Cc1cc(C)cc(NC(=O)C(CC(C)C)NS(=O)(=O)c2ccc3c(c2)oc(=O)n3C)c1 (configuration not stated),0.1,-1.78
CCOC(=O)CSc1nnc(-c2ccncc2)n1C,.,-1.37
Cc1nn(-c2ccc(F)cc2)c(-n2cccc2)c1C(=O)N1CCc2ccccc21,0.33,.
O=C(NCc1cccs1)c1cc(-c2ccccn2)n[nH]1,2.37,.
Cc1cc(C)c(S(=O)(=O)Nc2ccc(O)c(Sc3ncn[nH]3)c2)cc1C,2.58,-2.26
CN1CCN(CC(=O)Nc2sc3c(c2C#N)CCCC3)CC1,1.76,0.75
CCC(=O)N1c2ccccc2CC1C(=O)NCCC(C)C (configuration not stated),1.9,.

Screens as filed in PubChem.
